AID504770: growth inhibition of E. coli YBA685, primary screen, V. cholerae RctB inhibitors. E. coli YBA685 rctB-dependent plasmid, OD600 growth, 3 h; hits give low values. z-score (test concentration not listed). 0.27% of 130,000 active. AID 504770, 2011;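 active = z-score under -2 on both plates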;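 note: wells of about 30 µL received 100 nL stock; score is relative to mean and SD of the test wells; the first replicate is given; strong numbers were not always called active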
CapD inh: Bacillus anthracis CapD inhibitors, primary screen, biochemical, fluorescence intensity; 0.23% of 140,000 active; z-score (test concentration not listed); AID 492967, 2010; purified CapD enzyme, fluorescence intensity read-out; hits give low values; some hits fall short of the stated cut;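 active = z-score under -4 in either of two replicates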;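 note: stock transfer was 100 nL into about 40 µL; score is relative to mean and spread of the plate; one replicate is shown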
The depositor's hits bear a star; / = no result given; & = joins results of further samples. These rows are one share of the data. The share of hits here may be higher or lower than overall.

SMILES	AID504770	CapD inh
CCOC(=O)c1cnn2c1NC(c1ccc(C(C)C)cc1)CC2C(F)(F)F (centres undefined)	-0.05	0.21
CCn1nccc1NC(=O)COc1ccccc1OC	-0.3	0.415
Cc1ccc(C2(C)CC(C)(C)N(C(=O)c3sc4cc([N+](=O)[O-])ccc4c3Cl)c3ccccc32)cc1 (centres undefined)	/	-0.105
CC(c1nnc(SCC(=O)Nc2cccnc2Cl)n1Cc1ccccc1)N(C)C (centres undefined)	-0.35	/
Cc1ccc(C)n1C(CC(=O)O)c1ccc(C#N)cc1 (centres undefined)	0.25	-0.165
CC1CN=C(NC2CCCCC2)S1 (centres undefined)	1.4	-0.3&-0.105
O=C(c1nn2c(C(F)(F)F)cc(-c3ccco3)nc2c1Br)N1CCCCC1	/	-0.27
Cc1ccc(N(C)S(=O)(=O)c2cc(-c3cc(C)no3)ccc2C)cc1	1.5	-1.73
Cn1c(CNc2ccc(Br)cc2)nc2ccccc21	-0.9	-0.445
Cc1nn(C)c(C)c1CNC(C)c1ccc(-n2ccnc2)cc1 (centres undefined)	-0.15	/
Cc1cc(NC(=O)c2ccccc2)n(C)n1	/	0.26
CC(C)c1ccccc1OCC(O)CN1C(C)(C)CC(O)CC1(C)C (centres undefined)	0	-0.175
COc1cccc2c(=O)n(CC(=O)N3CCCc4ccccc43)ccc12	1.7	-0.775
O=C(NN1C(=O)/C(=C\C=C\c2ccco2)SC1=S)c1ccccc1O	1.4	/
CCCN(Cc1cc2cccc(C)c2[nH]c1=O)C(C)=O	2.05	/
FC(F)(F)c1cccc(CON/C=N\c2ncnc3sccc23)c1	/	-0.005
CCC1Oc2ccc(C)cc2N(CC(=O)N(Cc2cccnc2)Cc2cccc(OC)c2)C1=O (centres undefined)	-0.9	/
COc1ccc(/C=C2\C=C(c3ccccc3)N(c3ccccc3Cl)C2=O)cc1Br	/	-0.085
CCOc1ccc(N2C(=O)/C(=C\C(C)=C\c3ccccc3)S(=O)(=O)C2c2cccc([N+](=O)[O-])c2)cc1 (centres undefined)	/	-0.28
CCC(Sc1nc2ccccc2c(=O)n1CC1CCC(C(=O)NCc2ccco2)CC1)C(=O)NCc1ccco1 (centres undefined)	/	-0.64
CCOC(=O)COc1cc2oc(=O)cc(C)c2cc1Cl	-1.35	5.88
O=C(CN(Cc1ccc(Cl)cc1Cl)S(=O)(=O)c1ccccc1)N1CCCC1	-0.35	-0.545
O=C1/C(=C\c2ccc(C(F)(F)F)cc2)CSc2sccc21	/	-0.34
NC(=O)c1sc2c(c1N)C(c1ccccc1Cl)CC(=O)N2 (centres undefined)	2	-0.99
CSc1nnc(C2CCN(C(=O)c3cc(F)cc(F)c3)CC2)n1C	-0.25	/
NC(=S)c1ccc(C2OCCO2)cc1	/	-0.135
COc1cc(C(F)(F)F)c(C(=O)N(C)Cc2ccc(Cl)cc2)cn1	-0.65	-0.255
CCC(C)NC(=O)c1ccccc1N (centres undefined)	0.9	/
CC1CC(OCC(O)CN)CC(C)(C)C1 (centres undefined)	-2.15*	/
Cn1ncc(N2CCN(C(=O)c3ccc(Cl)cc3)CC2)c(Cl)c1=O	-0.45	-0.695
CCn1nccc1C(=O)Nc1nccs1	1.65	-0.17
Cc1onc(-c2ccccc2)c1C(=O)NC12CC3CC(CC(C3)C1)C2	-0.9	/
Nc1cc(Nc2ccccc2)c2nonc2c1[N+](=O)[O-]	/	-1.15
COc1ccc(C)cc1NC(=O)COC(=O)[C@@H]1CCCN1C(=O)OC(C)(C)C	0.25	/
CCOc1ccc(NC(=O)CC2C(=O)N(c3ccccc3)C(=S)N2CCCN2CCN(C)CC2)cc1 (centres undefined)	0.95	-0.265
COc1cccc(OCC2COS(=O)O2)c1 (centres undefined)	-0.9	/
CC1(C)C2CC=C(/C=N/NC(=O)c3cccc(S(=O)(=O)N4CCOCC4)c3)C1C2 (centres undefined)	-0.1	/
COc1ccc(C(=O)O)cc1Br	-1	0.33
CCn1c(O)c(C(C)=NCc2ccccc2CN(C)C)c(=O)n(CC)c1=S	0.95	/
CCOC(=O)C1=C(NC(=O)c2ccccc2)c2ccccc2CC12CCCC2	0.4	0.43
O=C1C=C(NCc2ccc(Cl)cc2)CCC1	-0.45	0.315
CCOC(=O)c1cc(-c2ccccc2)n(-c2cccc(C(=O)N3CCCC3)c2)c1C	0.5	-0.05
CC(C)Cn1nc(C(=O)N2CCN(Cc3nc4ccccc4s3)CC2)c2ccccc2c1=O	-0.55	/
Cc1c(C)c(C)c(CN)c(C)c1C	-1.2	-0.74
O=C(CC(=O)Oc1ccc(Cl)cc1Cl)Oc1ccc(Cl)cc1Cl	/	0.425
Cn1ccnc1SCC(=O)c1c[nH]c2ccccc12	-0.95	/
O=C(NC1CCCCC1)OCC(F)(F)F	-0.45	/
CCc1cccc(NC(=O)CN(C2=NC3CS(=O)(=O)CC3S2)c2cccc(C)c2)c1 (centres undefined)	-2.45*	-1.25
N#CCc1ccc(OCc2cc(Cl)cc(Cl)c2)cc1	-0.7	-0.84
Nc1cc(=O)[nH]c(=O)n1-c1ccc(Cl)cc1	0.55	0.08
CC(=O)N1CCN(S(=O)(=O)c2cccc(C(=O)NCC34CC5CC(CC(C5)C3)C4)c2)CC1	0.5	/
C=CCSc1nc2ccccc2n1C(=O)CN1C(=O)c2ccccc2C1=O	/	0.205
Cn1cc(Br)c(-c2cccc(NC(=O)CCCC(=O)O)c2)n1	-1.1	0
Cc1ccc(O)c(CNn2cnnc2)c1	0.45	0.175
COc1ccc(C(=O)OCc2cn3cc(Cl)ccc3n2)c(OC)c1OC	0.95	/
CCCCn1c(SCC(=O)N2CCC(C)CC2)nc2cc(S(N)(=O)=O)ccc21	1.3	/
O=C(NCCCN1CCN(Cc2ccccc2)CC1)c1cccs1	0	0.535
C=C(/C(C)=N/O)c1ccccc1	-0.7	-0.06
CCCCOC(=O)Nc1nccs1	-0.35	0.185
N#Cc1ccc(COC(=O)c2ccco2)cc1	0.5	-0.28

Whole records, looked up by structure. Order of values: AID504770 | CapD inh
Record of N#Cc1ccc(COC(=O)c2ccco2)cc1 : 0.5 | -0.28
Record of C=C(/C(C)=N/O)c1ccccc1 : -0.7 | -0.06
Record of O=C(NC1CCCCC1)OCC(F)(F)F : -0.45 | /
Record of O=C(NCCCN1CCN(Cc2ccccc2)CC1)c1cccs1 : 0 | 0.535

(listing goes on)
SMILES	AID504770	CapD inh
S=C(NCCc1ccccn1)Nc1ccccc1	-0.05	1.53
O=C(Cn1nnc(-c2ccccc2)n1)OCC(=O)N1CCc2ccccc2C1	0.3	/
C=CCn1c2[n+](c3ccccc3c1=O)CCCCC2	-0.55	-0.41
CSc1ncccc1C(=O)NCC1CCCCC1	-0.8	/
CCOc1ccc(CCNc2cc(C)nc3ncnn23)cc1OCC	0.35	0.17
COc1ccc(C(=O)Oc2csc(=S)n2C(=O)c2ccc(OC)cc2)cc1	2.7	-0.195
NC(N)=N/N=C\c1c(Cl)cccc1Cl	-0.1	1.03
O=C1c2cc(S(=O)(=O)Oc3ccccc3)ccc2-c2ccc(S(=O)(=O)Oc3ccccc3)cc21	/	0.12
CCOC(=O)c1cc2n(c1N)-c1ccccc1C2=O	-0.2	0.215
CCCCCCCCOc1ccc(OC(=O)c2ccc(OCCCCCC)cc2)cc1	/	0.285
Cc1nc(-n2cccc2)sc1C(=O)NC1CCCC1	0.5	0.74
O=S(=O)(CCSc1ccc(Cl)cc1)c1ccccc1	0.05	-0.475
O=C(Cn1ncc2c([nH]c3ccccc32)c1=O)N1CCc2ccccc21	0.15	0.11
O=C(OCc1nc2ccccc2s1)c1cc(Cl)sc1Cl	-0.4	-0.085
CCOCCOc1cccc2oc(C(=O)OCC)cc(=O)c12	0	-0.21
Cc1ccc2nc(NC(=O)c3ccc(S(=O)(=O)N4CCc5ccccc54)cc3)sc2c1	/	-0.27
O=C(CN1C(=O)C2C3C=CC(C3)C2C1=O)NCC1COc2ccccc2O1 (centres undefined)	0	0.495
CC(CNC(=O)c1nnc(Cc2ccc(F)cc2Cl)o1)c1ccccc1 (centres undefined)	-0.25	-0.085
CCCC(=O)Nc1ccc(S(=O)(=O)Nc2nc(C)cc(C)n2)cc1	/	0.015
CN1C(=O)c2cccc(NC(=O)CSc3ccc(F)cc3)c2C1=O	-0.9	/

7 entries drawn at random from the list so far, as already listed:
SMILES	AID504770	CapD inh
Cc1nc(-n2cccc2)sc1C(=O)NC1CCCC1	0.5	0.74
CN1C(=O)c2cccc(NC(=O)CSc3ccc(F)cc3)c2C1=O	-0.9	/
CCCC(=O)Nc1ccc(S(=O)(=O)Nc2nc(C)cc(C)n2)cc1	/	0.015
O=C(CN1C(=O)C2C3C=CC(C3)C2C1=O)NCC1COc2ccccc2O1 (centres undefined)	0	0.495
CCOCCOc1cccc2oc(C(=O)OCC)cc(=O)c12	0	-0.21
C=CCn1c2[n+](c3ccccc3c1=O)CCCCC2	-0.55	-0.41
O=S(=O)(CCSc1ccc(Cl)cc1)c1ccccc1	0.05	-0.475

Next section.
SMILES	AID504770	CapD inh
O=C1COc2ccc(C(=O)COC(=O)c3ccc4c(c3)C(=O)N(Cc3ccco3)C4=O)cc2N1	-0.1	/
COc1ccc(C(=O)NCc2cc3ccccc3n2C)cc1	-0.4	/
O=C(N/N=C/c1ccc(F)cc1)c1sccc1OCc1ccc(F)cc1	/	-0.77
O=C(c1cncc(Br)c1)N1CCSc2ccccc21	0.35	/
Cc1cccc(N2C(=O)CC(Sc3ncn[nH]3)C2=O)c1 (centres undefined)	0.05	0.095
Cc1ccccc1/C(N)=N\O	-0.35	-0.15
Cc1nc2cc(-c3ccccc3)nn2c(C)c1CCC(=O)N1CCCCC1	-0.25	9.64
CC(Oc1ccccc1)c1ccnn1C(=O)Nc1ccccc1 (centres undefined)	-0.3	-0.735
Cc1cc2nc3c(=O)[nH]c(=O)[nH]c3nc2cc1N=Cc1c(O)n(Cc2ccccc2)c(=O)[nH]c1=O	0.05	0.205
COC(=O)CCCCCCCC(=O)Nc1ccc(Cl)cc1	/	-0.19
Cc1ccc(NC(=O)C(CC(C)C)NS(=O)(=O)c2ccc(F)cc2)cc1C (centres undefined)	/	-0.695
CCCCC(CC)C(=O)Nc1c2c(nc3c1CCC3)CCCC2 (centres undefined)	-0.35	1.67
COCc1cc(=O)oc2cc(NS(C)(=O)=O)ccc12	-0.55	13.3
COc1cc(-n2c(C)nc3cc(C(=O)NCc4ccco4)ccc32)cc(OC)c1OC	/	-0.025
COC1C2C3CC4C5C3C1C5C(O)(c1ccccc1)C42 (centres undefined)	-0.05	-0.07
CSc1nsc(SCC(=O)N2CCCc3ccccc32)n1	0.1	0.71
COc1ccccc1S(=O)(=O)N(C)S(=O)(=O)c1cc(Cl)ccc1Cl	0.2	/
O=C(Nc1ccccc1-c1nc2ccccc2[nH]1)c1ccc(F)cc1	/	7.64
CCc1c(O)nc(SC(C)C(=O)Nc2cccc(Cl)c2)[nH]c1=O (centres undefined)	-0.75	0.135
Cc1ccc(C)c(N2CCN(S(=O)(=O)c3cc(Br)ccc3Br)CC2)c1	/	-0.735
COCCNC(=O)c1c(N)n(Cc2ccccc2)c2nc3ccccc3nc12	-0.5	/
CC(C)C1Cc2c(sc3c2c(=O)n(-c2ccccc2)c2nncn32)CO1 (centres undefined)	-0.6	0.375
CC(C)c1ccc(CNC(=O)CCc2ccccc2)cc1	2.45	-1.38
Cc1ccc(S(=O)(=O)Nc2cccc(C)c2)cc1	-0.25	/
N/C(=N\O)c1cccc(C(F)(F)F)c1	0.3	-0.295
CC(=O)NC(NC(C)=O)C(=O)c1ccccc1	-1.25	/
COc1ccc(CSc2nc(-c3ccccc3)c(-c3ccccc3)[nH]2)cc1	/	52
COc1cc(CCC(=O)NCc2ccco2)on1	-0.2	-0.18
O=C(CCSc1ccc(Cl)cc1)N1CCN(c2ccc(O)cc2)CC1	0.45	/
Cc1ccccc1NC(=O)Nc1ccccc1C	-1.7	/
Cc1ccc(NC(=O)c2oc3ccc4c(c3c2C)C(=O)CC(C)(C)O4)cc1	1.95	0.21
COc1ccc(C2=NN(C(=O)CSc3nnc(CNC(=O)Cc4ccccc4)n3C)C(c3ccc(OC)cc3)C2)cc1 (centres undefined)	/	-0.23
C=CCN(CC=C)S(=O)(=O)c1ccc(C(=O)Nc2nnc(COC)o2)cc1	/	0.01
CCN1CCC(N(Cc2ccco2)C(=O)Nc2ccc(OC)cc2)CC1	0.25	-0.07
COc1ccc(C2=NN(CN3C(=O)C(=O)c4cc(Br)ccc43)C(c3cccc([N+](=O)[O-])c3)C2)cc1 (centres undefined)	/	-0.215
NC(CO)c1ccccc1 (centres undefined)	-0.8	/
COc1ccc(C(=O)OCCN(C2=NS(=O)(=O)c3ccccc32)c2ccccc2OC)cc1OC	/	-1.52
CC(=O)Nc1nc(-c2cccnc2)cs1	-0.3	/
Oc1ccccc1C1Nc2ccccc2-c2nc3ccccc3n21 (centres undefined)	0.35	0.085
O=[N+]([O-])c1ccccc1S(=O)(=O)n1nnc2ccccc21	/	-0.215
CCOC(=O)c1ccc(OCc2ccccc2)cc1	/	-0.09
CCCNC(=O)C1CC(c2ccc(F)cc2)=NO1 (centres undefined)	0.55	-2.79
CCOC(=O)C(Cc1ccccc1)C(=O)Nc1ccccc1C (centres undefined)	-0.1	0.25
CCOC(=O)N1CCC(NC(=O)CN2N=C(c3ccc(Cl)cc3)CCC2=O)CC1	2.2	0.335
CCCCS(=O)(=O)c1ccc(C(=O)Nc2ccc(Cl)cc2)cn1	/	0.585

Screens: PubChem BioAssay, ICCB-Longwood Screening Facility, Harvard Medical School
